# Source: PubChem
# Lassa entry inh: qHTS for Inhibitors of binding or entry into cells for Lassa Virus; AID 540256, 2011; Potency, µM (doses to about 37.9 µM), inactives show at the highest dose activity change, negative = inhibition, actives largely listed as inhibitors; Lassa virus pseudotype entry inhibition, cell reporter; control for the full effect not named in the record; hit rate 1.2% among 300,000; active means well fitted inhibition curve with a large enough effect; inconclusive means small, poorly fitted or top-dose-only effect, or effect the other way; inactive means flat fitted curve, though single readings scatter; tested in HEK293 cells; further: on the % scale 0 is the no-effect control and ±100 the full control effect; nearly all actives have a fitted effect of over 50% in size; luciferase read-out
# 2A StopGo: High Throughput Screening for Foot and Mouth Disease Virus Antivirals. human cells with a luciferase reporter of 2A StopGo recoding; control for the full effect not named in the record. Potency, µM (titrated, usually from 57.9 µM), without a hit: top-dose signal change, negative = less light. hit rate 1.2% among 410,000; active = well fitted falling curve with a large enough effect; inconclusive = small, poorly fitted or top-dose-only effect; inactive = no such curve, though single readings can be large or run the other way; tested in HEK293T cells; further: on the % scale 0 is the no-effect control and ±100 the full control effect; nearly all actives have a fitted effect of over 45% in size; luciferase light after 4 h
# Cruzain noTriton: qHTS Assay for Promiscuous and Specific Inhibitors of Cruzain (without detergent); Cruzipain (Trypanosoma cruzi), P25779; hit rate 2.3% among 200,000; purified cruzain, Z-FR-AMC fluorescence, no detergent; Potency, µM, inactives show max response, negative = inhibition, hits mostly inhibitors; active means well fitted curve in the direction sought with a large enough effect; inconclusive means small, poorly fitted or top-dose-only effect, or another doubt; inactive means no such curve, though single readings can be large; an effect the other way counts as inactive or inconclusive;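 further: plate controls were enzyme without inhibitor for no effect and buffer without enzyme for full effect; nearly all actives have a fitted effect of over 40% in size; top concentration of the series not given in the record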
# Target sequence (P25779 123-467 limits assumed): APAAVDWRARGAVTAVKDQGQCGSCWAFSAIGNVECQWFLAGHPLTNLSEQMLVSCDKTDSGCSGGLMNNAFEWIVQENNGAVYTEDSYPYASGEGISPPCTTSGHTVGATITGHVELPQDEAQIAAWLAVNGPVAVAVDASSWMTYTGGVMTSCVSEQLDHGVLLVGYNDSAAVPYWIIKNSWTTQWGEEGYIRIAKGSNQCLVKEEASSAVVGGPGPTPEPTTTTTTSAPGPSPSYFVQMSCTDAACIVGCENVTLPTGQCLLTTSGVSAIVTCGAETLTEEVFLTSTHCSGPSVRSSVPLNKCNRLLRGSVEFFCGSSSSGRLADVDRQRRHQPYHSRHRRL
#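 Purified cruzain at 1.5 nM, pre-incubated 15 min with compound at room temperature in 100 mM sodium acetate pH 5.5, 5 mM DTT, 0.00005% Triton X-100. Reaction started with 2 uM Z-FR-AMC; AMC fluorescence increase over 60 s gives rate.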
# NS1 inh: qHTS Assay for Inhibitors of Influenza NS1 Protein Function; S. cerevisiae slowed by influenza A NS1, growth recovery by OD600; hit rate 0.4% among 270,000; Potency, µM (series often up to 46.1 µM), for inactives: at the top dose activity, positive = more growth; further: actives are rising curves; nearly all actives have a fitted effect of over 50% in size
#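 In this qHTS, NS1 from influenza A is expressed in budding yeast, where it slows growth. Cells are switched from glucose to 2% galactose medium (pH 6.0, -URA), treated with compound, and growth recovery is read at OD600.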
# Cruzain Triton: qHTS Assay for Promiscuous and Specific Inhibitors of Cruzain (with detergent); AID 1478, 2009; hit rate 0.43% among 200,000; Potency, µM, inactives show max response, negative = inhibition, actives largely listed as inhibitors; purified cruzain, Z-FR-AMC fluorescence, 0.01% Triton; active means well fitted curve in the direction sought with a large enough effect; inconclusive means small, poorly fitted or top-dose-only effect, or another doubt; inactive means no such curve, though single readings can be large; an effect the other way counts as inactive or inconclusive;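 further: plate controls were neutral wells for no effect and buffer without enzyme for full effect; nearly all actives have a fitted effect of over 40% in size; top concentration of the series not given in the record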
#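 Detergent-containing run (0.01% Triton X-100) in acetate buffer pH 5.5 with 5 mM DTT: enzyme at 1.5 nM final, 15 min compound preincubation at room temperature, then 2 uM Z-FR-AMC substrate. Activity taken as 60 s fluorescence increase at 360/450 nm.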
# MARV entry inh: qHTS for inhibitors of binding or entry into cells for Marburg Virus | AID 540276, 2011 | Potency, µM (titrated, usually from 37.8 µM), inactives show top-dose activity change, negative = inhibition, actives largely listed as inhibitors | Marburg virus pseudotyped entry inhibition, cell reporter; control for the full effect not named in the record; about a third of the inactives were read at about 46 µM | hit rate 1.8% among 300,000; active = well fitted inhibition curve with a large enough effect; inconclusive = small, poorly fitted or top-dose-only effect, or effect the other way; inactive = flat fitted curve, though single readings scatter; tested in HEK293 cells; about a fifth of its hits are not listed in these tables; further: on the % scale 0 is the no-effect control and ±100 the full control effect; luciferase read-out
# RE007 growth inh: qHTS Assay for Inhibitors of the HIV-1 protein Vpr | S. pombe RE007 Vpr strain, BacTiter-Glo ATP luminescence, 24 h; control for the full effect not named in the record | Potency, µM (doses to about 92.2 µM), for the others: at the highest dose activity change, negative = less growth | hit rate 0.21% among 360,000 | AID 651644, 2012; active = well fitted falling curve with a large enough effect; inconclusive = small, poorly fitted or top-dose-only effect; inactive = no such curve, though single readings can be large or run the other way;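 further: on the % scale 0 is the no-effect control and ±100 the full control effect; nearly all actives have a fitted effect of over 50% in size; the assay follows cell death caused by Vpr and the record does not say whether a fall means rescue or toxicity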
#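 Fission yeast strain RE007, carrying one chromosomally integrated HIV-1 vpr copy, was seeded at OD 0.01 in PMG+AL medium with 23 nL pinned compound. After 24 h at 30 °C and 99% humidity, viability was read by BacTiter-Glo luminescence.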
# SARS PLpro yeast: qHTS of Yeast-based Assay for SARS-CoV PLP; Potency, µM (highest dose often 32.9 µM), without a hit: top-dose activity, positive = growth rescue; hit rate 0.19% among 330,000; S. cerevisiae expressing SARS-CoV PLpro, growth rescue; control for the full effect not named in the record; further: 0% is about no effect; nearly all actives have a fitted effect of over 55% in size; growth read by luminescence after 48 h
# Starred values were filed as active, the others as inactive; ? = inconclusive; . = no result given; [ ] = another dose, or the depositor's remark. Unless noted, the call rests on the fitted dose curve; in most records, active means well fitted rising curve with a large enough effect; inconclusive means small, poorly fitted or top-dose-only effect; inactive means no such curve, though single readings can be large or run the other way. Potency means the concentration at half of the fitted maximal effect. Rows are unselected. Share with any hit: about 4.7%.
SMILES	Lassa entry inh	2A StopGo	Cruzain noTriton	NS1 inh	Cruzain Triton	MARV entry inh	RE007 growth inh	SARS PLpro yeast
CCc1cc[n+](C(C(=S)Nc2cccc(C)c2)=C([O-])c2ccc(C)c([N+](=O)[O-])c2)cc1	5.0%	-5.8%	.	.	.	5.5%	?	.
Cc1cccc(CNC(=O)C2CCC(=O)N(CCc3cccc(F)c3)C2)n1 (configuration not stated)	.	-0.1%	.	-15.9%	.	.	-4.4%	0.3%
COC(=O)c1ccc(NC(=S)NC2CC(C)(C)NC(C)(C)C2)cc1	?	-14.8%	-6.9%	9.3%	-4.9%	?	1.4%	-11.8%
CCN(CC)CCN1C(=O)C(O)=C(C(=O)c2ccc(C)o2)C1c1ccccn1 (configuration not stated)	23.8%	13.0%	.	-3.6%	.	-9.1%	-2.9%	.
CC(=O)N1C(O)CC(C)N1c1ccccc1 (configuration not stated)	10.0%	-8.9%	-7.7%	25.6%	0.6%	15.2%	13.2%	8.2%
CC(C)C1Oc2ccccc2N(CC(=O)N(Cc2ccccn2)CC2CCCO2)C1=O (configuration not stated)	-3.9%	-4.6%	27.4%	-3.6%	1.6%	-19.0%	5.1%	1.78µM*
Cc1ccc(N=C(N)N=C(N)N)c(C)c1	10.0%	-18.5%	.	-1.2%	.	-5.0%	-17.0%	2.2%
CCOc1cc(/C=C2\SC(=O)N(c3ccc(O)cc3)C2=O)ccc1O	.	11.4%	.	-2.9%	.	.	-6.3%	0.3%
Cc1ccn2c(=O)nc(SCC(=O)OCc3ccccc3)nc2c1	10.5%	-20.0%	.	.	.	?	11.5%	-7.6%
Cn1c(=O)c2c(nc(CN3CCN(CCO)CC3)n2Cc2cccc3ccccc23)n(C)c1=O	-18.7%	-0.3%	-1.8%	4.4%	7.0%	11.6µM*	-9.8%	2.9%
Cc1ccc(C)c(NC(=O)Cn2c(=O)n(Cc3ccc4c(c3)OCO4)c(=O)c3ccc(C(=O)NC4CCCCC4)cc32)c1	?	-23.2%	-10.9%	.	-0.3%	-7.6%[46.1 µM]	.	.
Cc1cccc(NC(=S)N/N=C/c2cccc(O)c2)c1C	.	0.0%	.	-4.7%	.	.	7.1%	-1.6%
Cc1ccc(N2C(=O)C(NC(=O)c3ccccc3F)(C(F)(F)F)C3=C2CC(C)(C)CC3=O)cc1 (configuration not stated)	?	-19.0%	?	12.1%	-5.5%	6.5%	-1.7%	3.6%
CCOC(=O)N1CCN(S(=O)(=O)c2cc(OCC)ccc2OCC)CC1	-8.2%	22.9%	9.3%	-12.7%	-2.6%	-0.5%	-5.4%	-4.4%
CCOc1ccc(C(C(=O)NCC2CCCO2)N(C(=O)c2snc(C(N)=O)c2N)c2ccc(F)cc2)cc1 (configuration not stated)	?	-13.7%	.	9.9%	.	?	3.2%	1.8%
O=C1C=C(c2c(O)ccc3ccccc23)c2ccccc2C1=O	6.31µM*	22.4µM*	.	.	.	?	-16.2%	.
Cc1ccc(NC(=O)CN2C(=O)S/C(=C\c3ccc(-c4cccc(C(=O)O)c4C)o3)C2=O)cc1C	?	-2.5%	.	.	.	-19.2%[46.1 µM]	1.4%	0.3%
Cc1cc(NC(=O)c2ccc(Cl)c(S(=O)(=O)N3CCCCC3)c2)no1	?	?	.	-1.2%	.	-1.2%	-11.4%	-6.2%
O=C(CCN1CCN(c2ccccc2)CC1)N/N=C/c1ccccc1OC(F)F	?	-7.9%	.	.	.	?	5.6%	-2.7%
CCCc1cc(=O)[nH]c(SCC(=O)N2C(C)CCCC2C)n1 (configuration not stated)	12.1%[46.1 µM]	2.2%	.	7.0%	.	9.5%[46.1 µM]	9.8%	7.2%
CN1CCc2c(sc(NC(=O)C3COc4ccccc4O3)c2C(N)=O)C1 (configuration not stated)	?	15.6%	.	5.1%	.	16.5%	-3.1%	1.9%
CCC(C(=O)Nc1cccc(Cl)c1C)n1nc(-c2ccc(C)cc2)ccc1=O (configuration not stated)	3.4%[46.1 µM]	?	?	.	-3.0%	?	.	.
Fc1ccccc1C(c1nnnn1Cc1ccc2c(c1)OCO2)N1CCN(Cc2ccccc2)CC1 (configuration not stated)	?	-19.2%	15.3%	-12.9%	-2.8%	?	15.4%	9.8%
Nc1nccc(-c2cc(-c3ccc(Cl)cc3Cl)no2)n1	?	22.5%	.	-8.3%	.	14.1µM*	?	-1.8%
CNC(=S)N(CCc1ccc(S(N)(=O)=O)cc1)C1CC(=O)N(c2ccccc2F)C1=O (configuration not stated)	-27.2%	-10.8%	.	4.3%	.	-8.3%[14.2 µM]	2.6%	1.2%
Cn1nnnc1SCC(=O)NC(=O)c1cccc([N+](=O)[O-])c1	.	-10.6%	.	1.7%	.	.	10.1%	-0.5%
O=S(=O)(NCC(c1ccco1)N1CCOCC1)c1ccc(Br)cc1 (configuration not stated)	10.3%[46.1 µM]	-0.3%	0.5%	.	-1.0%	.	.	.
CSc1nc2ccc(NC(=O)c3cc4ccccc4o3)cc2s1	?	-15.4%	11.2%	3.6%	-6.3%	?	0.1%	-11.1%
CCOC(=O)c1sc(N)c(C(=O)Nc2ccccc2OC)c1C	2.51µM*	-16.8%	.	.	.	?	-8.8%	5.5%
COc1ccc(NC(=O)c2cnc(Nc3ccc(C)c(Cl)c3)c3ccccc23)cc1OC	25.5%[46.1 µM]	-18.4%	-5.4%	.	-0.9%	24.8%[46.1 µM]	.	.
CN(C(=O)COC(=O)/C=C/c1cccc([N+](=O)[O-])c1)C1CCS(=O)(=O)C1 (configuration not stated)	-12.5%	-12.8%	.	1.3%	.	3.55µM*	-5.0%	-0.7%
Cc1ccc(Cc2nc3ccccc3[nH]2)cc1	12.7%	20.2%	.	4.3%	.	-0.5%	-11.1%	1.8%
Cc1noc(Cn2c(=O)c3ccccc3n(CC(=O)Nc3ccc(C(C)C)cc3)c2=O)n1	-2.1%[46.1 µM]	-18.4%	21.0%	.	-6.0%	.	.	.
COc1ccc(C(=O)NC2CCN(C(=S)Nc3ccc(C)c(C)c3)CC2)cc1	-12.2%	-6.6%	7.8%	0.9%	-2.1%	11.7%	0.5%	7.2%
CCOc1ccc(C(=O)Nc2ccc(-c3cc4ccccc4oc3=O)c(C)c2)cc1[N+](=O)[O-]	-9.5%	?	?	14.3%	0.3%	-21.7%	-4.6%	-1.6%
COc1ccc(OC)c(NC(=O)NCCc2c[nH]c3ccccc23)c1	.	1.6%	.	1.5%	.	.	-3.0%	-1.4%
COc1ccc(C(=O)CSc2nnc(CNC(=O)c3ccccc3)n2C)cc1	8.0%	-4.8%	.	3.8%	.	18.5%	-15.7%	0.3%
CC(C)OCCCNS(=O)(=O)c1ccc2ccccc2c1	9.0%	45.5%[activator]	1.7%	-13.0%	0.0%	-2.5%	-19.5%	-17.6%
Cc1cc(C)n(CCc2nc3c4ccccc4nc(SCc4ccc(Cl)cc4)n3n2)n1	5.9%[46.1 µM]	-3.7%	-1.3%	.	2.5%	.	.	.
CCOC(=O)Cc1ccc(NC(=O)n2ncc3c(C)cccc32)cc1	.	21.3%	4.9%	.	-3.9%	-0.4%[46.1 µM]	.	.
CCC(C(=O)N1CCCCCC1)n1nc(C)n2c(cc3occc32)c1=O (configuration not stated)	.	42.2%	.	23.8%	.	.	-4.3%	10.2%
O=C(c1ccc(F)cc1)C1CCN(C(=O)Nc2ccc(F)cc2)CC1	?	?	-8.9%	-17.6%	-0.2%	-6.1%	-11.0%	-3.9%
Cc1ccc(S(=O)(=O)/C(C#N)=C/c2c(Oc3ccc(Cl)cc3)nc3c(C)cccn3c2=O)cc1	4.8%	.	-6.3%	10.0%	-1.4%	12.3%	.	-24.5%
S=c1nc(-c2ccc(Br)cc2)oc2c1CCCC2	?	-22.1%	-4.3%	-0.1%	-2.0%	2.4%	-16.1%	-1.5%
O=C(NCCN1CCOCC1)c1ccc(/C=C2\Sc3ccccc3N(Cc3ccccc3F)C2=O)cc1	.	?	.	16.6%	.	.	5.4%	-1.5%
CCN1CCN(Cc2ccc(NC(=O)Nc3cccs3)cc2)CC1	-9.5%	21.3%	-20.9%	18.8%	-12.3%	?	-10.7%	?
Nc1c(Cl)ncnc1N1CCOCC1	-7.3%	.	-5.9%	3.6%	0.5%	?	1.9%	-2.1%
COc1ccc(-n2nc3c(c2NC(=O)COc2ccccc2F)CS(=O)(=O)C3)cc1	1.3%	-18.9%	.	3.9%	.	3.3%	-1.4%	?
Cc1ccc(C(C)NC(=O)c2cc3ccccc3oc2=O)cc1C (configuration not stated)	.	-22.4%	.	-47.0%	.	.	18.7%	-4.8%
Cc1cccc(-n2c(N)cc(=O)nc2SC(C)C(=O)NC2CCCCC2)c1 (configuration not stated)	.	.	-28.0%	4.5%	-29.2%	-1.1%	.	-0.2%
Cc1nc(N2CCN(C)CC2)c2sc(=S)n(-c3ccccc3)c2n1	1.9%	-15.0%	-4.8%	-5.3%	-4.5%	14.5%	5.2%	-12.7%
Cc1ccc(C)c(C(=O)CSc2n[nH]c(C)n2)c1	-12.6%	4.7%	-15.6%	0.5%	-3.5%	-16.7%	6.3%	-10.4%
Cc1ccc(NC(=O)C(=O)NCCOc2ccc(Cl)cc2)c(C)c1	-11.7%	?	5.6%	4.9%	-2.6%	7.6%	-5.8%	-1.1%
